Choline anaer gr – inhibitors of anaerobic choline-dependent gram-negative bacterial growth | Gram-negative bacterium anaerobic choline minimal medium, absorbance growth; hits give low values; many inactives read as strong as hits in the columns shown | calls only | 0.2% of 55,000 active | AID 1963822;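 active means growth z-score on choline under -2 at 7 or 20 h with little or no fall on glycerol, limits in tiers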;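 further: stock transfer was 300 nL into about 50 µL; the organism is E. coli; final concentration not given here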
Choline anaer gr early – further read-out of Choline anaer gr, marked with its call; z-score; measured here: choline growth z-score, timepoint 1;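 score of optical density at 7 h as mean of two plates; lower means less growth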
Starred values were filed as active, the others as inactive; i = inactive; & = joins results of further samples.

SMILES	Choline anaer gr	Choline anaer gr early
Cc1ccc(NC(=O)c2nn(C)c3c2CCc2sccc2-3)cc1F	i	0.4
CCN(Cc1ccccc1)c1ccc(NC(=O)c2ccc(Br)cc2)cc1C(=O)O	i	0.39
CCc1nc2cc(-c3noc(-c4ccc5c(c4)OCO5)n3)ccc2o1	i	-1.51
CNS(=O)(=O)c1cn(CC(=O)Nc2cccc(F)c2)cc1S(=O)(=O)NC	i	-0.12
Cc1ccc2c(c1)N(CCCC(=O)Nc1ccc3c(c1)nc(CCc1ccccc1)n3C)C(=O)CO2	i	0.14
COc1ccc(C)c2sc(NC(=O)c3ccc(S(=O)(=O)N(C)CC4CCCO4)cc3)nc12 (stereo not given)	i	-0.35
CC1CCCN(CCNC(=O)C2CCc3nc(N4CCOCC4)ncc3C2)C1 (stereo not given)	i	0.46
Cc1ccc(NC(=O)c2ccc(CN3CCN(C)CC3)cc2)cc1Nc1nccc(-c2cccnc2)n1	i	-0.75&-0.09
O=C(CCC(=O)N1CC=C(c2c[nH]c3ccccc23)CC1)NCc1ccccc1	i	-0.43
COc1ccc(OC)c(CCNC(=O)c2cc(C)nc3c2c(=O)n(C)c(=O)n3C)c1	i	0.46
O=C(NCc1noc(Cc2ccccc2)n1)c1ccccc1	i	-1.11
CCC(C)NC(=O)Cn1nc(-c2ccccc2)c2cc(Cl)ccc21 (stereo not given)	i	0.1
CC(C)n1cnc(S(=O)(=O)N2CCCC(C(=O)NC3CCCCC3)C2)c1 (stereo not given)	i	0.03
c1ccc(-c2nnc(CN3CCCCC3)o2)cc1	i	-1.22
COC1CCC(C(=O)c2ccc3nc4c(cc3c2)CCCO4)CC1 (stereo not given)	i	0.64
CCC(C)NS(=O)(=O)c1ccccc1-c1nc(-c2ccc(C)cc2)no1 (stereo not given)	i	0.7
O=C(Nc1ccccc1)N1CCN(Cc2cc(=O)n3nc(-c4ccc(F)cc4)sc3n2)CC1	i	-0.44
Cc1ccc(-c2nc3n(c2CNC(=O)C(C)(C)C)CCS3)cc1	i	-0.68
Cc1ccc(NC(=O)Nc2ccccc2OCc2cc(=O)n3c(ncn3C(C)C)n2)cc1	i	-0.64
COc1cc(OC)c(/C=C2/C(=O)Nc3ccccc32)c(OC)c1	i	0.54
Cc1nc(CNC(=O)[C@H]2CCCN2S(=O)(=O)c2ccc(Br)cc2)cs1	i	-0.28
Cc1ccc(C)c(CN2CCC(CNC(=O)Nc3ccc(Cl)cc3)CC2)c1	i	0.41
CCOc1ccc(NC2c3ccccc3C(=O)N2c2ccc(Cl)cc2)cc1 (stereo not given)	i	-0.05
Cc1nc(-c2cc(S(=O)(=O)Nc3cccc(Cl)c3C)c(C)s2)cs1	i	0.37
CC(C)n1c(CN2CCN(C)CC2)nc2cc(NC(=O)C3CCCCC3)ccc21	i	0.7

The listing continues:
SMILES	Choline anaer gr	Choline anaer gr early
COc1cccc(NC(=O)c2c(C)oc3ccc(OC)cc23)c1	i	-0.98
Cc1cc(C)c(/C=C/c2onc(C)c2S(=O)(=O)N2CCCC(C(=O)N3CCc4ccccc43)C2)c(C)c1 (stereo not given)	i	-0.74
COC(=O)c1c(-c2ccc(F)cc2)noc1N	i	0.6
O=C(c1cccc(F)c1)N1CCc2nc(-c3ccccc3)sc2C1	i	0.34
Cc1ccc2oc(-c3ccc(C)c(NC(=O)c4ccc5c(c4)OCCO5)c3)nc2c1	i	-0.36
O=C(c1ccc2ccnc(N3CCN(c4ccc(F)cc4)CC3)c2c1)N1CCCC1	i	-0.3
COc1ccc(-c2cc(C(=O)NCC(c3ccc(OC)cc3)N3CCCC3)no2)cc1 (stereo not given)	i	-0.19
Cc1cc2c(cc1S(=O)(=O)CCC(=O)Nc1ccc(F)cc1F)OCC(=O)N2	i	-1.88
Cc1c(C(=O)Nc2nccs2)nnn1-c1ccc2noc(-c3ccc(Br)cc3)c2c1	i	0.8
CCCCn1c(=O)c2sccc2n2c(CCC(=O)NC3CCCCC3)nnc12	i	-0.36
CCc1cc(C2CCCN2C(=O)c2cc(C3CCCCC3)no2)on1 (stereo not given)	i	0.54
Cc1ccc(S(=O)(=O)n2nc(C)c(S(=O)(=O)N3CCCC(C)C3)c2C)cc1C (stereo not given)	i	1.27
C=CCOc1ccc(C2CC(=O)Nc3c2c(C)nn3-c2nc3ccc(OC)cc3s2)cc1 (stereo not given)	i	1.56
C=C(C)C1CC=C(C(=O)O)CC1 (stereo not given)	i	-0.21
COc1ccc(C2c3cccn3-c3sc4c(c3CN2C(=O)NC(C)C)CCN(C)C4)cc1 (stereo not given)	i	0.4
CCC(C(=O)N(CC)c1ccccc1)n1cnc2nc3c(cc2c1=O)CCCC3 (stereo not given)	i	-0.69
O=C(c1cccc(Br)c1)N1CCc2cc3ccccc3nc21	i	1.17
O=C(CCn1cnc2ccccc2c1=O)Nc1cccc(Cl)c1	i	2.07
Clc1ccc(Cc2nc3c4ccccc4ncn3n2)cc1	i	0.21
Cc1ccc(CCNC(=O)CNC(=O)C2(C)Cn3c(cc4ccccc43)C(=O)N2C)cc1 (stereo not given)	i	1.02
CCOc1ccc(-c2noc(Cn3nc(-c4ccccc4)c4ccccc4c3=O)n2)cc1OC	i	0.55
Cc1ccc(-c2cc(C(=O)N(C)Cc3cnn(C)c3C)c3cc(Br)ccc3n2)cc1	i	-0.45
CCCc1cc(C2CCCN2Cc2ccc(OC)cc2)no1 (stereo not given)	i	0
O=C1CCCN1c1ccc(S(=O)(=O)NCC2CCCO2)cc1 (stereo not given)	i	-1.29
CN(C)C(=O)COC(=O)Cc1ccc(OC(=O)c2ccc(N=C(N)N)cc2)cc1	i	-0.04

The listing continues.
SMILES	Choline anaer gr	Choline anaer gr early
COc1ccc(-c2cc(OCC(=O)Nc3ccccc3)c3ccccc3n2)cc1	i	0.98
Nc1nc(N)c(N=O)c(OCC2CCCCC2)n1	i	0.58
CCCCCC(=O)/C=C/[C@H]1[C@H](O)CC(=O)[C@@H]1C/C=C\CCCC(=O)O	i	1.24
Cc1ccc(-c2ccc(=O)n(-c3c(C)noc3C)n2)cc1S(=O)(=O)N1CCCC1	i	0.79
Cc1ccc(C)c(C(=O)c2sc(Nc3ccccc3)nc2N)c1	i	0.15
COCCNC(=O)N1CCN(S(=O)(=O)c2ccc3c(c2)NC(=O)C(C)O3)CC1 (stereo not given)	i	-1.65
COc1ccc(CNC(=O)COc2ccccc2-c2nnc(-c3ccccc3)o2)cc1	i	-2
Cc1cccc(NC(=O)NCc2nc(-c3ccccc3)oc2C)c1	i	0.75
Cc1csc(-c2cc(S(=O)(=O)N3CCCC3)cn2CC(=O)N2CCCC2)n1	i	-1.1
CN(C)S(=O)(=O)c1ccc(-c2nc(C#N)c(N3CCc4ccccc4C3)o2)cc1	i	-0.3
CCOC(=O)CCc1nc(Cl)c2c(CC)noc2n1	i	-0.63
O=C(NCCC1=CCCCC1)C1CC(=O)N(C2CCCCCC2)C1 (stereo not given)	i	0.79
Cc1[nH]c(-c2nnc(C3CC3)o2)c(C)c1S(=O)(=O)N1CCCCC1	i	1.36
CC(C)c1ccc(S(=O)(=O)c2cn(CC(=O)Nc3ccccc3)c3ccccc3c2=O)cc1	i	-1.26
CN1CCN(C(=O)c2sc3ncccc3c2-n2cccc2)CC1	i	-2.16
O=C(NC1CC(=O)N(c2ccc(Cl)cc2)C1)c1ccc2c(c1)OCO2 (stereo not given)	i	-1.77
O=C(c1cnc2ccc(F)cc2c1Nc1ccc(Cl)cc1)N1CCCCC1	i	-0.36
CCNC(=O)N1CCNC(=O)C1(C)C	i	0.66
Cc1ccc(Nc2nc(C)cc(=O)[nH]2)cc1	i	-1.48
Cc1nn(-c2ccccc2)c2sc(-c3noc(-c4ccc5c(c4)OCO5)n3)cc12	i	-0.07
O=C(c1cc(C2CC2)on1)N1CCCC1c1cccc(F)c1 (stereo not given)	i	-0.12
CCOC(=O)c1c(NC(=O)CSc2nnc(CNC(=O)Cc3ccccc3)n2C)sc2c1CCC2	i	0.13
c1ccc(-n2ncc3c(Nc4ccc5c(c4)OCO5)nc(NCC4CCCO4)nc32)cc1 (stereo not given)	i	0.56
CC(C)c1ccc(NC(=O)CSc2nc(=O)c3cccnc3n2C2CCCC2)cc1	i	-0.37
O=C(NCCCN1CCc2ccccc2C1)c1ccc(N2CCCC2)c(S(=O)(=O)N2CCCC2)c1	i	0.71

(more compounds)
SMILES	Choline anaer gr	Choline anaer gr early
Cc1cc(C)c2c(-n3cccc3)nn(CCCC(=O)NCc3cccc(Cl)c3)c2n1	i	1.93
Cc1ccc(-n2ncc3c(=O)n(Cc4nc(-c5ccc(C(C)(C)C)cc5)no4)cnc32)cc1Cl	i	-0.67
CCCCCCCCCC(=O)N[C@@H](Cc1c[nH]c2ccccc12)C(=O)N[C@@H](CC(N)=O)C(=O)N[C@@H](CC(=O)O)C(=O)N[C@@H]1C(=O)NCC(=O)N[C@@H](CCCN)C(=O)N[C@@H](CC(=O)O)C(=O)N[C@H](C)C(=O)N[C@@H](CC(=O)O)C(=O)NCC(=O)N[C@H](CO)C(=O)NC([C@@H](C)CC(=O)O)C(=O)N[C@@H](CC(=O)c2ccccc2N)C(=O)OC1C (stereo not given in full)	i	0.55
CCOC(=O)c1ccccc1NC(=O)c1nn(-c2ccc(Cl)cc2)c(=O)n(C)c1=O	i	0.81
CCN=C1NS(=O)(=O)c2ccccc21	i	-0.31
Cc1nn(-c2ccc3nnc(C)n3n2)c(C)c1CCC(=O)Nc1cccnc1	i	0.57
O=C(NCCCN1CCC(N2CCCCC2)CC1)c1nnc2ccc(-c3ccccc3)nn12	i	-0.75
COc1ccc(CNC(=O)C2(C)Cc3ccccc3C(=O)N2C2CCCC2)cc1 (stereo not given)	i	-0.99
Cn1c(=O)n(C)c2cc(NC(=O)Nc3ccc(Cl)cc3)ccc21	i	-0.29
Cc1[nH]c2c(C)cccc2c(=O)c1CN1CCC(C)CC1	i	0.44
O=c1[nH]c2cc3c(cc2c(=O)n1CCCc1nc(-c2ccc(Br)cc2)no1)OCO3	i	-0.42
COc1ccc(Cc2nc3c4c(C)c(C)n(-c5ccccc5Br)c4ncn3n2)cc1	i	0.92
CC1CCN(C(=O)CN(C)S(=O)(=O)c2ccc3nc(-c4ccccc4)[nH]c3c2)CC1	i	0.03
COc1ccc(-c2nn3c(=O)c(NC(=O)c4ccc(OC)c(OC)c4)cnc3o2)cc1	i	0.46
O=C(COc1cccc(-c2nc(-c3ccccc3)no2)c1)Nc1ccc(F)cc1	i	0.15
CC(C)CCNC(=O)c1noc2ncnc(N3CCOCC3)c12	i	-0.85
CCCCC[C@H](O)/C=C/[C@@H]1[C@@H](CCCCCCCO)[C@@H](O)C[C@H]1O	i	0.43
O=C(NCc1ccc2c(c1)OCO2)c1cc(-c2cccnc2)nc2ccccc12	i	1.09
COc1ccc(C(=O)Nc2nonc2C)cc1	i	-0.39
O=C(CC(=O)Nc1ccc2nc3n(c(=O)c2c1)CCCCC3)Nc1ccc(F)cc1	i	-0.45
Cn1c(=O)n(C)c2cc(Oc3ccccc3)c(NC(=O)Nc3cccc(Cl)c3)cc21	i	0.22
O=C(NCc1c(-c2ccc(Cl)cc2)nc2n1CCS2)C1CC1	i	-2.03
COc1ccc(S(=O)(=O)Nc2ccc(C(=O)N3CCCC3C(=O)NCCC(C)C)cc2)cc1 (stereo not given)	i	-0.8
Cc1cc(N2CCCC2)nc(N2CCN(C(=O)c3ccc(C(C)(C)C)cc3)CC2)n1	i	0.42
O=C(c1cc2ccc3cccnc3c2[nH]1)N1CCN(c2ccccc2)CC1	i	-0.45

15 structures already listed, ordered by count of non-hydrogen atoms, smallest number first:
SMILES	Choline anaer gr	Choline anaer gr early
c1ccc(-c2nnc(CN3CCCCC3)o2)cc1	i	-1.22
O=C1CCCN1c1ccc(S(=O)(=O)NCC2CCCO2)cc1 (stereo not given)	i	-1.29
COc1cccc(NC(=O)c2c(C)oc3ccc(OC)cc23)c1	i	-0.98
O=C(c1cccc(F)c1)N1CCc2nc(-c3ccccc3)sc2C1	i	0.34
CCc1nc2cc(-c3noc(-c4ccc5c(c4)OCO5)n3)ccc2o1	i	-1.51
CNS(=O)(=O)c1cn(CC(=O)Nc2cccc(F)c2)cc1S(=O)(=O)NC	i	-0.12
O=C(c1cc2ccc3cccnc3c2[nH]1)N1CCN(c2ccccc2)CC1	i	-0.45
Cc1nn(-c2ccc3nnc(C)n3n2)c(C)c1CCC(=O)Nc1cccnc1	i	0.57
COc1ccc(CNC(=O)C2(C)Cc3ccccc3C(=O)N2C2CCCC2)cc1 (stereo not given)	i	-0.99
Cc1c(C(=O)Nc2nccs2)nnn1-c1ccc2noc(-c3ccc(Br)cc3)c2c1	i	0.8
COc1ccc(-c2cc(C(=O)NCC(c3ccc(OC)cc3)N3CCCC3)no2)cc1 (stereo not given)	i	-0.19
Cc1ccc(NC(=O)Nc2ccccc2OCc2cc(=O)n3c(ncn3C(C)C)n2)cc1	i	-0.64
O=C(Nc1ccccc1)N1CCN(Cc2cc(=O)n3nc(-c4ccc(F)cc4)sc3n2)CC1	i	-0.44
CCOc1ccc(-c2noc(Cn3nc(-c4ccccc4)c4ccccc4c3=O)n2)cc1OC	i	0.55
O=C(NCCCN1CCc2ccccc2C1)c1ccc(N2CCCC2)c(S(=O)(=O)N2CCCC2)c1	i	0.71

Continuation:
SMILES	Choline anaer gr	Choline anaer gr early
C=CCN1CC(c2nc3ccccc3n2CC(O)COc2ccccc2C)CC1=O (stereo not given)	i	1.83
Cn1nc(C(=O)N2CCCC(C(=O)NC3CC3)C2)c2c1CCN(C(=O)COc1ccccc1)C2 (stereo not given)	i	-0.55
O=C(c1nnc(-c2csc(S(=O)(=O)NC3CC3)c2)o1)N1CCCC1	i	-0.91
Cc1ccc(-c2nc3c(s2)CN(S(C)(=O)=O)CC3)cc1	i	-0.14
Cc1noc(C)c1C1CCCN1S(=O)(=O)c1cccc2nsnc12 (stereo not given)	i	1.34
O=C(COc1ccccc1)Nc1noc(-c2ccccc2)n1	i	-0.92
CC1Oc2ccc(S(=O)(=O)N3CCCC(C(=O)NC4CCCC4)C3)cc2NC1=O (stereo not given)	i	-0.78
O=C(CC1CCN(C(=O)c2cc3cc(Cl)ccc3[nH]2)CC1)NC1CCCCC1	i	-0.83

Assay outcomes (PubChem)

Only part of the results is shown (hit frequency here may not be typical).
